Bioassay records (PubChem BioAssay)
Cruzain Triton – inhibitors of Trypanosoma cruzi cruzain with detergent. purified cruzain, Z-FR-AMC fluorescence, 0.01% Triton. Potency, µM, for inactives: max response, negative = inhibition, usual class: inhibitors. hit rate 0.43% among 200,000; active = well fitted curve in the direction sought with a large enough effect; inconclusive = small, poorly fitted or top-dose-only effect, or another doubt; inactive = no such curve, though single readings can be large; an effect the other way counts as inactive or inconclusive;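 also: plate controls were neutral wells for no effect and buffer without enzyme for full effect; nearly all actives have a fitted effect of over 40% in size; top concentration of the series not given in the record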
Target sequence (P25779 123-467 limits assumed): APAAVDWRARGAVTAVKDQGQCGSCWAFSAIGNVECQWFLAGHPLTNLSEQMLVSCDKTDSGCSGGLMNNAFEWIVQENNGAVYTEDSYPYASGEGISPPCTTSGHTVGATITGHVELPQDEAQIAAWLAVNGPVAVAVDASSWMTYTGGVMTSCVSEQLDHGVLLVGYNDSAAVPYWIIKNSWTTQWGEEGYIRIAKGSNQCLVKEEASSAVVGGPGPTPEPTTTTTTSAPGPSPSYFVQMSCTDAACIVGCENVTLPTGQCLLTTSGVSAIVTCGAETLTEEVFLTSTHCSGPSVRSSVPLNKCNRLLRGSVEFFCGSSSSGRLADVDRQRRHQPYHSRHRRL
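Cruzain (1.5 nM) preincubated 15 min at RT with compound in 100 mM sodium acetate pH 5.5, 5 mM DTT, 0.01% Triton X-100. Reaction started with 2 uM Z-FR-AMC; AMC fluorescence (ex 360/em 450 nm) change over 60 s gave rate.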
SARS PLP yeast – inhibitors of SARS-CoV papain-like protease in yeast | hit rate 0.19% among 330,000 | S. cerevisiae expressing SARS-CoV PLpro, growth rescue; control for the full effect not named in the record | Potency, µM (highest dose often 32.9 µM), inactives show at the top dose activity, positive = growth rescue | AID 485353; also: 0% is about no effect; nearly all actives have a fitted effect of over 55% in size; growth read by luminescence after 48 h
2A StopGo – FMDV 2A StopGo reporter, luciferase signal | AID 1159524 | hit rate 1.2% among 410,000 | Potency, µM (highest dose often 57.9 µM), inactives show top-dose signal change, negative = less light | human cells with a luciferase reporter of 2A StopGo recoding; control for the full effect not named in the record; active = well fitted falling curve with a large enough effect; inconclusive = small, poorly fitted or top-dose-only effect; inactive = no such curve, though single readings can be large or run the other way; tested in HEK293T cells; also: % is scaled to controls: 0 for no effect and ±100 for the full control effect; nearly all actives have a fitted effect of over 45% in size; luciferase light after 4 h
NS1 function inh – blocks influenza NS1 protein function | S. cerevisiae slowed by influenza A NS1, growth recovery by OD600 | AID 2326 | hit rate 0.4% among 270,000 | Potency, µM (highest dose often 46.1 µM), for the others: top-dose activity, positive = more growth; also: actives are rising curves; nearly all actives have a fitted effect of over 50% in size
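OD600 was taken as the measure of yeast growth restored by compound in an NS1-expressing S. cerevisiae strain. Cells had been washed out of glucose medium and diluted 1:100 into galactose -URA medium, pH 6.0.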
Cruzain noTriton – cruzain (T. cruzi) inhibition without detergent; Potency, µM, for inactives: max response, negative = inhibition, usual class: inhibitors; purified cruzain, Z-FR-AMC fluorescence, no detergent; hit rate 2.3% among 200,000; active = well fitted curve in the direction sought with a large enough effect; inconclusive = small, poorly fitted or top-dose-only effect, or another doubt; inactive = no such curve, though single readings can be large; an effect the other way counts as inactive or inconclusive;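 also: plate controls were enzyme without inhibitor for no effect and buffer without enzyme for full effect; nearly all actives have a fitted effect of over 40% in size; top concentration of the series not given in the record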
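Detergent-free condition (0.00005% Triton X-100) in acetate buffer pH 5.5 with DTT. 1.5 nM enzyme and compound were pre-mixed 15 min, then 2 uM Z-FR-AMC substrate added; reaction progress from fluorescence change between first and third reads (60 s).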
MARV entry inh – blocks Marburg virus binding to or entry into cells | Marburg virus pseudotyped entry inhibition, cell reporter; control for the full effect not named in the record; about a third of the inactives were read at about 46 µM | Potency, µM (doses to about 37.8 µM), inactives show at the highest dose activity change, negative = inhibition, hits mostly inhibitors | hit rate 1.8% among 300,000 | AID 540276; active = well fitted inhibition curve with a large enough effect; inconclusive = small, poorly fitted or top-dose-only effect, or effect the other way; inactive = flat fitted curve, though single readings scatter; tested in HEK293 cells; about a fifth of its hits are not listed in these tables; also: % is scaled to controls: 0 for no effect and ±100 for the full control effect; luciferase read-out
Lassa entry inh – blocks Lassa virus binding to or entry into cells | Lassa virus pseudotype entry inhibition, cell reporter; control for the full effect not named in the record | Potency, µM (doses to about 37.9 µM), for the others: at the top dose activity change, negative = inhibition, most hits filed as inhibitors | hit rate 1.2% among 300,000 | AID 540256; active means well fitted inhibition curve with a large enough effect; inconclusive means small, poorly fitted or top-dose-only effect, or effect the other way; inactive means flat fitted curve, though single readings scatter; tested in HEK293 cells; also: % is scaled to controls: 0 for no effect and ±100 for the full control effect; nearly all actives have a fitted effect of over 50% in size; luciferase read-out
RE007 growth inh – less growth of the S. pombe RE007 Vpr strain. S. pombe RE007 Vpr strain, BacTiter-Glo ATP luminescence, 24 h; control for the full effect not named in the record. Potency, µM (highest dose often 92.2 µM), for inactives: at the top dose activity change, negative = less growth. hit rate 0.21% among 360,000. AID 651644; active = well fitted falling curve with a large enough effect; inconclusive = small, poorly fitted or top-dose-only effect; inactive = no such curve, though single readings can be large or run the other way;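 also: % is scaled to controls: 0 for no effect and ±100 for the full control effect; nearly all actives have a fitted effect of over 50% in size; the assay follows cell death caused by Vpr and the record does not say whether a fall means rescue or toxicity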
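Fission yeast RE007 carrying one integrated HIV-1 vpr copy, seeded at OD 0.01 in PMG+AL medium with 23 nL pinned compound. Grown 24 h at 30 degrees; viability read by BacTiter-Glo luminescence after 5 min.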
Starred values were filed as active, the others as inactive; ? = inconclusive; . = no result given; & = joins results of further samples; [ ] = remark or other dose. Unless noted, calls follow the shape of the dose curve; as a rule, active means well fitted rising curve with a large enough effect; inconclusive means small, poorly fitted or top-dose-only effect; inactive means no such curve, though single readings can be large or run the other way. Potency is read from the fitted curve at half-maximal effect. The order is random (roughly 4.7% active in at least one column).

SMILES	Cruzain Triton	SARS PLP yeast	2A StopGo	NS1 function inh	Cruzain noTriton	MARV entry inh	Lassa entry inh	RE007 growth inh
COC(=O)C(O)(c1ccc(NC(=O)c2ccccc2)cc1)C(F)(F)F (stereo not given)	.	-2%	0%	3%	.	.	.	0%
CCC(=O)Nc1nnc(SCC(=O)N2c3ccccc3CC2C)s1 (stereo not given)	3.5µM*	2%	-14%	2%	13µM*	-17%	3%	-2%
COc1ccc(OC)c(CNC(=O)CCC(=O)N2Cc3ccccc3Oc3ncccc32)c1	-2.5%	-2%	-10%&-12%	-8%	-5%	-3%&-3%[46.1 µM]	-6%&24%[46.1 µM]	9%
CC1(C)C2CCC1(CS(=O)(=O)Nc1ccc(S(=O)(=O)NC3CCCCC3)cc1)C(=O)C2 (stereo not given)	-5.8%	25%	-15%	-9%	-7%	?	?	0%
Cc1ccc(Cc2c(C)nc3nc(SCC(=O)NCCN4CCOCC4)nn3c2C)cc1	-4.9%	-1%	17%	7%	2%	18%	29%	2%
O=C(Oc1ccc([N+](=O)[O-])cc1)c1cccnc1	-3.7%	?	-13%	-2%	9%	-3%	15%	-8%
O=C(Nc1ccc2c(c1)Cc1ccccc1-2)c1ccncc1	1.4%	-23%	30%	-27%	?	?	-8%	-15%
S=C(NCCCN1CCOCC1)Nc1ccc(Cl)cc1	-1.3%	-31%	19%	3%	-8%	4%	-2%	.
CCC(=O)N1CC(=O)Nc2ccc(C)cc2C1c1ccc(F)cc1 (stereo not given)	0.7%	.	-25%	.	-2%	25%[46.1 µM]	-10%[46.1 µM]	.
CCOC(=O)COc1c(OC)cc(Cl)cc1C1Nc2ccccc2C(=O)N1c1cccc(C)c1 (stereo not given)	-3.6%	1%	19%	?	?	-8%	-28%	5%
C[C@H](NC(=O)[C@@H]1Cc2ccccc2CN1C(=O)OC(C)(C)C)C(=O)NC1CCCC1	.	0%	-3%	9%	.	.	.	10%
O=C(Oc1ccc(-c2csnn2)cc1)c1cccs1	.	0%	45%[activator]	-2%	.	10%	1%	-5%
C=CCN(c1ccccc1)S(=O)(=O)c1cccc(C(=O)Nc2ccncc2)c1	.	11%	22µM*	.	.	?	?	-13%
COc1ccc(C(=O)Nc2ccc3c(c2)CCCN3S(=O)(=O)c2ccc(C)cc2)cc1	-2.7%	.	-11%	.	?	.	-28%[46.1 µM]	.
Cc1cccc(N2CCN(C(=O)CCC(=O)N3CC(C)Oc4ccccc43)CC2)c1C (stereo not given)	.	-32%	?	-50%	.	.	.	16%
COc1ccc(-c2nc(SCC(=O)Nc3cccc(C(C)=O)c3)n[nH]2)cc1	-3.8%	.	0%	.	0%	.	-14%[46.1 µM]	.
O=C(Nc1ccc(-n2cccn2)cc1)C1CCN(Cc2ccccn2)CC1	.	0%	-8%	2%	.	4%	7%	-13%
O=C1CCCC2=C1C(c1ccccc1)C1=C(CCCC1=O)O2	6.4%	4%	.	-4%	-5%	-1%	.	.
O=C(Nc1cccc(S(=O)(=O)NC2=NCCC2)c1)c1ccccc1	.	-3%	10%	.	.	27%	2%	29%
O=C(Cc1c(F)cccc1Cl)NNC(=O)c1ccco1	.	-1%	13%	.	.	-4%	9%	0%
CC(C)C1Cc2nc(Cl)c(C#N)cc2CO1 (stereo not given)	.	0%	-7%	6%	.	?	5%	-5%
COc1ccc(-c2ccc(/C=N/NC(=O)Cc3nnc(N)s3)o2)cc1Cl	.	0%	-5%	11%	.	.	.	-23%
CCSc1nnc(NC(=O)CCNS(=O)(=O)c2cc(Br)cnc2N)s1	-4.1%	1%	22%	-7%	-5%	-3%	0%	-1%
CCOc1ccc(C(=O)NCC2CCCO2)cc1OCC (stereo not given)	.	0%	5%	0%	.	.	.	3%
CC(C)NS(=O)(=O)c1ccc(CCC(=O)NCc2ccncc2)cc1	.	-1%	-2%	5%	.	0%	22%	13%
O=C(c1ccc(Cl)cc1)N1CCN(CCc2ccncc2)CC1	-0.5%	.	-8%	.	-13%	12%[46.1 µM]	5%[46.1 µM]	.
CCn1c2ccccc2c2cc(CN3CCN(S(C)(=O)=O)CC3)ccc21	-1.2%	-4%	-27%	-4%	14%	?	?	1%
Cc1ccc(Cl)cc1NS(=O)(=O)c1ccc2c(c1)NC(=O)C(C)C(=O)N2 (stereo not given)	.	-6%	?	2%	.	.	.	-2%
CCOc1ccccc1NC(=O)/C=C/c1ccccc1[N+](=O)[O-]	-7.9%	14%	-17%	5%	3%	?	4%	-1%
Brc1ccccc1OCCN1CCOCC1	.	3%	5%	14%	.	23%	-3%	5%
CCOC(=O)c1nnn(-c2nonc2N)c1CSc1ccccn1	2.1%	1%	-19%	4%	-5%	-7%	9%	-7%
Cc1ccc(N(CC(=O)NC2CCCCC2)S(=O)(=O)c2cccs2)cc1	.	8%	-7%	2%	.	.	.	2%
Cc1nc(N2CCCCC2C)c2c(C)c(C(=O)Nc3cccc(C(F)(F)F)c3)sc2n1 (stereo not given)	.	-2%	?	.	.	?	-2%	-4%
NC1=Nc2ccccc2Oc2ccccc21	?	-6%	-2%	-21%	25µM*	?	?	11%
CCN(CC)S(=O)(=O)c1ccc(C)c(NC(=O)CSc2ncc(C(F)(F)F)cc2Cl)c1	-1.0%	11%	-18%	18%	?	18%	?	-5%
CCNC(=S)Nc1ccc(Cl)c(C(F)(F)F)c1	-1.1%	2%	?	-41%	-10%	?	5%	.
CC(C)OC(=O)c1c(NC(=O)C2c3ccccc3Oc3ccccc32)sc2c1CCCC2	-6.6%	.	-1%	.	6.3µM*	-25%[46.1 µM]	5%[46.1 µM]	.
O=C(Cn1ncc2c(=O)oc3ccccc3c21)NCc1ccc(Cl)cc1	-0.7%	.	-2%	.	2%	1%[46.1 µM]	24%[46.1 µM]	.
COC(=O)CNC(=O)c1ccccc1C	-1.7%	7%	-12%	0%	0%	3%	6%	-11%
CNC(=O)Nc1ccc(C(=O)N/N=C\C23CC[C@@H](O)CC2(O)CC[C@@H]2[C@@H]3CCC3(C)C(C4=CC(=O)OC4)CCC23O)cc1 (stereo not given in full)	.	0%	-15%	-2%	.	.	.	5%
O=C(CN1C(=O)C2CCCCC2C1=O)Nc1ccccc1C(=O)O (stereo not given)	.	2%	14%	14%	.	7%[46.1 µM]	17%[46.1 µM]	-9%
CN(C(=O)CSc1cn(CC(=O)N2CCCC2)c2ccccc12)c1ccccc1	-2.7%	.	3%	.	?	.	3%[46.1 µM]	.
CCCCN(CCCC)C(=O)c1cc2ccccc2c(=O)o1	-9.9%	15%	12%	-13%	3%	1%	11%	8%
NC(=O)c1ccccc1NS(=O)(=O)c1ccccc1	2.6%	4%	-3%	2%	5%	-17%	?	-22%[3.69 µM]
COc1ccccc1CN(Cc1ccco1)c1cnc(S(C)(=O)=O)nc1C(=O)Nc1ccccc1Cl	-4.0%	.	-14%	.	?	?	-23%[46.1 µM]	.
COCc1c(N)c(C)nc(Cl)c1C#N	.	2%	-2%	-3%	.	-27%[46.1 µM]	7%	-16%
CN(C(=O)COC(=O)c1cc([N+](=O)[O-])ccc1N1CCCC1)C1CCS(=O)(=O)C1 (stereo not given)	.	-2%	-4%	.	.	?	3%	-21%
CC(C)c1ccc(O)c(NC(=O)c2ncn[nH]2)c1	-4.2%	-1%	7%	9%	2%	-5%	7%	0%
O=C(/C=C/c1ccc(O)c(O)c1)OC(Cc1ccc(O)c(O)c1)C(=O)O (stereo not given)	-25%&-1.8%	2%	-22%&-4%	13%	?	.	.	3%
CC(C)CNC(=S)Nc1ccc(Oc2ccccc2)cc1	-6.3%	-80%	20%	-41%	-3%	?	-20%	.
Cc1ccc(NC(=O)CSc2nc3ccc(NC(=O)c4cccs4)cc3s2)c(C)c1	-7.2%	.	16%	.	?	?	-10%[46.1 µM]	.
CCOCCN1CCN(c2c3c(nc4cc(-c5ccc(F)cc5)nn24)CCC3)CC1	-3.0%	3%	-6%	-15%	5%	-5%	.	6%
COCCNC(=O)c1cn(C(C)c2ccccc2F)nn1 (stereo not given)	.	1%	-10%	2%	.	2%	.	1%
CCOC(=O)C1CCCN(C(=O)c2ccc3c(=O)n(Cc4ccccc4OC)c(=S)[nH]c3c2)C1 (stereo not given)	.	26%	-9%	-9%	.	.	.	6%
COc1ccc(N(C(C)C(=O)Nc2cccnc2)S(C)(=O)=O)cc1 (stereo not given)	.	1%	38%[activator]	3%	.	25%[46.1 µM]	4%	31%
Cc1ccc(SCc2cc(=O)[nH]c(Nc3nc(C)c4ccc(C)cc4n3)n2)cc1	-2.1%	10%	?	9%	?	?	?	13%
Cc1ccn2c(=O)c(NC(=O)c3ccc(Br)o3)c(C)nc2c1	.	2%	-4%	.	.	-14%	0%[46.1 µM]	7%
CCOc1ccc(S(=O)(=O)N2CCCCC2)cc1NC(=O)CN1C(=O)NC(C)(C2CC2)C1=O (stereo not given)	.	2%	-1%	.	.	-1%	4%	2%
CCOc1cc(C(=O)Nc2ccc(-c3nc4cc(C)ccc4o3)cc2)cc(OCC)c1OCC	-3.0%	.	?	.	2%	0%[46.1 µM]	1%[46.1 µM]	.
CC(C)CNC(=O)CCCc1c[nH]c2ccccc12	2.7%	-6%	0%	3%	1%	-1%	?	-7%

Continuation.
SMILES	Cruzain Triton	SARS PLP yeast	2A StopGo	NS1 function inh	Cruzain noTriton	MARV entry inh	Lassa entry inh	RE007 growth inh
CCCCNC(=S)Nc1ccc(SC(F)F)cc1	.	-1%	0%	.	.	?	?	9%
O=C(N/N=C/c1cc2c(cc1[N+](=O)[O-])OCO2)c1ccc2c(c1)OCO2	.	0%	-9%	2%	.	-16%[46.1 µM]	.	-2%
O=C1C(Nc2ccccc2)=C(NS(=O)(=O)c2ccccc2)C(=O)c2ccccc21	-8.3%	-3%	-3%	10%	-1%	16%	-3%	-2%
CCOc1ccccc1NC(=O)C(C)Sc1cc(-c2ccccc2)nc(C)n1 (stereo not given)	-6.6%	.	-20%	.	-6%	-22%[46.1 µM]	-13%[46.1 µM]	.
